VACV mCherry inh: qHTS for Stage-Specific Inhibitors of Vaccinia Orthopoxvirus: mCherry Reporter Primary qHTS; Vaccinia virus mCherry reporter infection, fluorescence; about a quarter of the inactives have no number; Potency, µM (titrated, usually from 36.5 µM), inactives show top-dose activity change, negative = inhibition, hits mostly inhibitors; actives 0.63% (n = 310,000); active = well fitted inhibition curve with a large enough effect; inconclusive = small, poorly fitted or top-dose-only effect; inactive = no such curve, though single readings can be large or run the other way; tested in A549 cells; also: nearly all actives have a fitted effect of over 35% in size; inactives centre near -10
VACV Venus inh: qHTS for Stage-Specific Inhibitors of Vaccinia Orthopoxvirus: Venus Reporter Primary qHTS; Potency, µM (titrated, usually from 36.5 µM), without a hit: at the top dose activity change, negative = inhibition, most hits filed as inhibitors; actives 0.46% (n = 330,000); Vaccinia virus Venus reporter expression, fluorescence; active means well fitted inhibition curve with a large enough effect; inconclusive means small, poorly fitted or top-dose-only effect; inactive means no such curve, though single readings can be large or run the other way; tested in A549 cells; also: nearly all actives have a fitted effect of over 30% in size; inactives centre near -10
The depositor's hits bear a star; i = inactive; u = inconclusive; x = not tested or not shown; [ ] = dose if it differs, or a comment. % is scaled to controls: 0 for no effect and ±100 for the full control effect; potency is read from the fitted curve at half-maximal effect.

Below each SMILES – VACV mCherry inh	VACV Venus inh
COc1ccc(C(=O)NNC(=O)c2cc3cccc(OC)c3oc2=O)cc1
    -8.6%	-2.7%
COc1cc(OC)nc(/N=C/NO)n1
    -11.2%	-7.6%
COC(=O)c1nn(C23CC4CC(CC(C4)C2)C3)c2c1C(=O)N(c1ccc(F)cc1)C2=O
    -7.3%	-7.0%
COc1ccc(C(=O)n2nc(-c3cccnc3)nc2NCc2ccccc2)cc1OC
    -11.9%	-5.8%
COc1ccc(C(=O)NC(=S)Nc2ccc(N3CCOCC3)c(Cl)c2)cc1[N+](=O)[O-]
    -9.0%	-18.0%
CCCCN(C(=O)c1c(C)[nH]c(C(=O)OCC)c1C)c1ccccc1
    -0.3%	-8.7%
COc1ccc(CN(C(=O)CN2C(=O)c3ccccc3S2(=O)=O)C(C(=O)NCC2CCCO2)c2ccco2)cc1 (configuration not stated)
    -12.6%	-7.1%
CCOc1ccccc1-n1nnnc1SCC(=O)Nc1cc2oc3ccccc3c2cc1OC
    -7.4%	-8.0%
CC(C)C(=O)N1CCN(c2ccc(NC(=O)c3ccc([N+](=O)[O-])o3)cc2Cl)CC1
    u	u
COCCNC(=O)C1CCCN(C(=O)c2ccnc(Cl)c2)CC1 (configuration not stated)
    i	-0.4%
Fc1cccc(-c2nc(-c3ccncc3)no2)c1
    -6.6%	-13.4%
O=C(Nc1ccc2nc(SCC(=O)N3CCCc4ccccc43)sc2c1)c1cccc(Cl)c1
    -19.2%	-20.6%
NS(=O)(=O)c1ccc(CCNC(=O)c2ccc3c(c2)N(Cc2ccccc2)CCS3)cc1
    -2.5%	-7.9%
CCOC(=O)c1ccc2nc(C)cc(Nc3cccc(C(=O)O)c3)c2c1
    -4.7%	-2.4%
CCCCCC(=O)N1CCCCC1
    i	-3.9%
Cc1ccc2cc(/C=N/NC(=O)CN3CCCCC3)c(Cl)nc2c1
    6.0%	-2.1%
O=C(NCc1cccs1)C(=O)NCC(c1ccco1)N1CCN(c2ccccc2)CC1 (configuration not stated)
    u	-5.8%
CC(=O)Nc1cccc(C(=O)OC(C)C(=O)NC(=O)NC2CCCCC2)c1 (configuration not stated)
    i	-6.9%
COc1ccc(CNc2ccc(Cl)cc2)cc1Cn1ccnc1
    -15.6%	-16.0%
N/C(=N\S(=O)(=O)c1ccc(Cl)s1)c1ccccc1
    -19.0%	-8.4%
CSc1ncc(C(=O)Nc2ccc(C(C)=O)cc2)c(-c2ccccc2)n1
    -7.7%	0.5%
O=[N+]([O-])c1cccc(CNc2ccc3c(c2)CCC3)c1
    -19.7%	-15.1%
Cc1ccc(-n2c(O)c(/C=C/C=Nc3ccccc3)c(=O)[nH]c2=O)cc1
    -18.3%	24.8%
Cc1ccc(CCNC(=O)CN2N=C(c3ccc(C)cc3)CCC2=O)cc1
    -12.3%	-7.0%
CCc1ccc(C(O)c2ncc(-c3cccc4ccccc34)[nH]2)cc1 (configuration not stated)
    -22.7%	-21.8%
Cc1cccc(NC(=S)N2CCN(c3ccc(F)cc3)CC2)c1
    -11.0%	-16.6%
CC(C)NS(=O)(=O)c1ccc(CCC(=O)N2CCC(C(N)=O)CC2)cc1
    -14.8%	-0.3%
O=c1oc2c(CN3CCOCC3)c(O)ccc2cc1-c1ccccc1
    -12.5%	-2.2%
Cc1cc(C(=O)Nc2ccc(S(=O)(=O)Nc3onc(C)c3C)cc2)cs1
    -5.2%	-0.2%
CCOC(=O)C1CCCN(C(=O)C2CCN(S(=O)(=O)c3cccs3)CC2)C1 (configuration not stated)
    i	-15.6%
O=C(c1ccc(F)c(S(=O)(=O)N2CCOCC2)c1)N(c1ccccc1)c1ccccn1
    -7.1%	-7.4%
COc1ccccc1-c1cn[nH]c1-c1ccc(OCc2ccccc2)cc1O
    u	-1.5%
Cc1ccc2c(c1)S(=O)(=O)c1ccc3ccccc3c1N2
    i	-4.5%
CN(C)S(=O)(=O)c1ccc(N2CCCC2)c(C(=O)NCc2ccc(Cl)cc2)c1
    -24.3%	-13.2%
CCN(CC)S(=O)(=O)c1ccc2c(c1)nc(CCC(=O)Nc1cccc(C(F)(F)F)c1)n2CC
    x	u
O=C(NN1C(=O)C2C(C1=O)C1C=CC2C12CC2)c1cccnc1 (configuration not stated)
    -18.4%	-14.2%
COC(=O)/C=C/CC(C)OS(N)(=O)=O (configuration not stated)
    i	-3.8%
COc1ccc(CCN2C(=O)C3C4CC(C5C(C(=O)N/N=C\c6ccc(Cl)cc6)=NOC45)C3C2=O)cc1OC (configuration not stated)
    x	-29.6%
CCOC(=O)C1=C(COc2ccc(F)cc2Cl)NC(=O)NC1c1cc(C)ccc1C (configuration not stated)
    -8.1%	-12.7%
CCn1c(SCC(=O)NCc2cccs2)nnc1-c1ccco1
    -9.3%	-2.6%
CCN(CC)C(=O)CSc1nc(O)c(Cc2ccccc2)c(=O)n1-c1ccccc1C
    -11.4%	9.4%
C=CCOC(=O)C1=C[C@@H](c2ccc(Br)cc2)C[C@@H](OCc2ccc(CO)cc2)O1
    -12.6%	-12.7%
O=C(Nc1ccccc1N1CCOCC1)c1cnccn1
    -14.0%	-7.9%
CC1(C)CC1C(=O)Nc1ccc([N+](=O)[O-])cc1Br (configuration not stated)
    -18.2%	-15.2%
COc1ccc2c(=O)c(-c3ccc(C)cc3)c(-c3ccccc3)oc2c1
    -2.4%	-10.3%
COc1ccc(C)cc1-n1c(SCC(=O)N2CCOCC2)nc2ccccc2c1=O
    i	-1.0%
O=C(Nc1ccc(-c2csnn2)cc1)C1CC1
    -14.1%	-11.4%
O=C(C1CC1)N1CCN(S(=O)(=O)c2ccc3c(c2)OCCO3)CC1
    -22.0%	-13.1%
CCOC(=O)[C@@H]1[C@H]2COc3ccccc3[C@H]2N2C(=O)N(c3ccccc3)C(=O)[C@]12C
    -14.1%	-5.3%
COCCN(Cc1ccccc1)C(=O)c1cccc(S(=O)(=O)N(C)c2c(C)n(C)n(-c3ccccc3)c2=O)c1
    -12.1%	-7.1%
O=C(CN(C(=O)CCC(=O)Nc1nccs1)c1ccc(F)cc1)NCc1ccco1
    -10.8%	-13.2%
CC1CN=C(N(Cc2ccccc2)C(=O)Nc2ccccc2)S1 (configuration not stated)
    u	u
COc1ccc(S(=O)(=O)NC(=O)C2(C)CCN2C(=O)Cc2ccc(C(C)(C)C)cc2)cc1 (configuration not stated)
    4.5%	2.4%
COc1ccc(C2(C)CC(=O)NC2=O)cc1 (configuration not stated)
    i	-5.2%
Cc1ccnc(NC(=O)Cn2cc([N+](=O)[O-])cn2)c1
    -6.0%	2.2%
O=C(Nc1nnc(-c2ccc(Cl)cc2)o1)Nc1ccccc1Cl
    -14.5%	-12.0%
COc1ccc2c(c1OC)C(=O)N(c1cccc(C(F)(F)F)c1)C2
    -11.5%	-17.5%
Cc1nc(C)c(-c2ccc(SCC(=O)Nc3ccc(C)c(F)c3)nn2)s1
    -2.3%	-12.4%
COC(CNC(=S)Nc1ccc([N+](=O)[O-])cc1)OC
    -13.6%	-16.0%
Cc1nn(C)c2c1NC(=O)CS2
    i	7.9%

Grouped by structure, the compounds so far with an NH in an aromatic ring (4)
Below each SMILES – VACV mCherry inh	VACV Venus inh
CCCCN(C(=O)c1c(C)[nH]c(C(=O)OCC)c1C)c1ccccc1
    -0.3%	-8.7%
Cc1ccc(-n2c(O)c(/C=C/C=Nc3ccccc3)c(=O)[nH]c2=O)cc1
    -18.3%	24.8%
CCc1ccc(C(O)c2ncc(-c3cccc4ccccc34)[nH]2)cc1 (configuration not stated)
    -22.7%	-21.8%
COc1ccccc1-c1cn[nH]c1-c1ccc(OCc2ccccc2)cc1O
    u	-1.5%

Remaining list, next part:
Below each SMILES – VACV mCherry inh	VACV Venus inh
Cc1nn(C(=O)c2c(F)cccc2F)c(C)c1S(=O)(=O)N1CCOCC1
    3.4%	-2.1%
COC(=O)CN1C(=O)[C@H]2[C@@H](c3ccc(C)o3)N3C(=O)CN(Cc4ccccc4)C(=O)[C@@]3(C)[C@H]2C1=O
    i	2.7%
Cc1cccc(NC(=O)N2CCC(n3nnc4cc(C)ccc43)CC2)c1
    i	-14.1%
O=C(CCNC(=O)c1ccco1)Nc1ccc(SC(F)F)cc1
    i	-21.0%
COc1ccc(-c2cc3cc4c(cc3cn2)OCO4)cc1
    -2.3%	-12.3%
CC(=O)NC(=S)Nc1ccc(S(=O)(=O)N2CCOCC2)cc1
    -0.3%	5.8%
Cc1ccc(SCc2cc(-c3ccc(Cl)cc3)no2)cc1
    1.2%	7.1%
CCOC(=O)c1c(C)nc2cc(C)cc(C)n12
    1.1%	-8.0%
O=C(CCl)NC(Cc1ccccc1)c1ccccc1 (configuration not stated)
    4.0%	0.9%
O=C(Nc1ccc(F)cc1F)c1ccc(-n2cccn2)nc1
    -7.7%	-19.7%
COc1ccc(NC(=O)C2CCN(C(=O)Nc3ccc(C)cc3)CC2)cc1OC
    -6.5%	8.7%
CN(C(=O)c1ccc(N2CCCCC2)c([N+](=O)[O-])c1)C1(C)CCS(=O)(=O)C1 (configuration not stated)
    i	-19.6%
COc1ccc(C2=CC(=O)C[C@H](c3ccc(F)cc3)C2)c(F)c1F
    -25.4%	-17.1%
CC(=O)Nc1ccc(S(=O)(=O)Nc2cccc(S(=O)(=O)N(C)c3ccccc3)c2)cc1
    -20.4%	-11.3%
COC(=O)c1cc(S(=O)(=O)NCCc2ccc(C)cc2)c[nH]1
    -8.4%	-19.3%
O=C(CNC(=O)c1ccco1)NC1CCCCCC1
    -19.2%	-12.6%
CCOC(=O)c1[nH]c(C)c(CCC(=O)NCc2ccccc2C)c1C
    -8.6%	-10.2%
CCOc1ccccc1NS(=O)(=O)c1ccc2c(c1)oc(=O)n2C
    i	-8.0%
Cc1cc(=O)oc2cc(OCC#N)ccc12
    8.5%	-5.2%
CN1CCN(c2ccccc2NC(=O)c2ccc(Br)o2)CC1
    x	-10.7%
CCN(CC)c1ncnc2c1ncn2[C@H]1CN(Cc2ccco2)C[C@@H](CO)O1
    11.6%	0.4%
CN1C(=O)c2ccccc2Sc2ccc(NC(=O)N3CCOCC3)cc21
    -3.5%	-10.2%
CN(CC(=O)Nc1ccc(Cl)c(C(F)(F)F)c1)C(=O)CCNC(=O)c1ccco1
    -2.6%	-14.2%
N#CC(OC(=O)c1ccccc1)c1cccc([N+](=O)[O-])c1 (configuration not stated)
    u	-4.1%
Cn1cccc1C(=O)NNC(=O)COc1ccc(C#N)cc1
    -14.9%	-17.9%
Cc1ccccc1Cn1c(-c2cncs2)nc2ccccc21
    -13.1%	-17.0%
COc1cccc2c(=O)c3ccoc3n(C)c12
    -7.5%	3.8%
CC1Cc2[nH][nH]c(=O)c2C(C2CCCC2)O1 (configuration not stated)
    10.6%	7.0%
C/C(CC(=O)Nc1ccc(Br)cc1)=N\NC(=O)Cc1csc(N)n1
    i	0.8%
O=[N+]([O-])c1nn(-c2ccc3c(c2)OCCO3)n(O)c1=NCCCO
    -26.0%	-26.5%
Cc1ccc(/C=C/C(=O)N2CCN(c3cccc(C(F)(F)F)c3)CC2)cc1
    -7.2%	-1.0%
O=C(Nc1nnc([C@H]2C[C@H](O)[C@@H](CO)O2)s1)Nc1ccccc1C(F)(F)F
    10.8%	6.2%
O=C(COc1ncnc2c1cnn2-c1ccccc1)Nc1ccc(S(=O)(=O)N2CCCCC2)cc1
    -27.3%	-22.9%
Cc1cc2c(cc1C)NC(c1nc3ccccc3[nH]1)C1=C(CC(C)(C)CC1=O)N2 (configuration not stated)
    -11.0%	-17.0%
COc1ccc(-n2c(CNC(=O)c3cccs3)n[nH]c2=S)cc1
    5.9%	1.8%
CCc1noc(C)c1C(=O)Nc1ccc(-c2nnc3n2CCCCC3)cc1
    -16.6%	-15.0%
COc1ccccc1-c1cc(C(=O)NCc2ccccc2)no1
    -25.1%	-13.8%
Cc1nc(Nc2ccccc2C)c2cnn(C)c2n1
    -15.6%	-13.7%
C=CCOc1cccc(C2C(C(=O)c3ccco3)=C(O)C(=O)N2Cc2ccncc2)c1 (configuration not stated)
    -4.1%	5.3%
Cc1nnc(-c2ccc(Oc3ccc(C)c(C)c3)c([N+](=O)[O-])c2)o1
    -29.1%	-11.7%
C/C(CC(=O)Nc1ccc2c(c1)OCO2)=N\NC(=O)C(c1ccccc1)c1ccccc1
    -11.0%	-1.7%
Cc1ccccc1NC(=O)CSc1nc2nccnc2c(=O)n1CCc1c[nH]c2ccccc12
    -13.4%	-6.0%
Cc1cccc(-c2cc3nc4c(c(N5CCOCC5)n3n2)CCCC4)c1
    u	-20.1%
CN(Cc1ccccc1)C(=O)CSc1nc2ccccc2[nH]1
    44.6%[activator]	1.0%
Cc1ccc(-n2c(SCC(=O)NCC3CCCO3)nc3c(c2=O)SCC3)cc1 (configuration not stated)
    -16.7%	-14.4%
O=C(O)c1ccc(N2C(=O)/C(=C/c3ccc(-c4ccc([N+](=O)[O-])cc4)o3)C=C2c2ccccc2)cc1
    -6.7%	176.6%[activator]
CCN(CC)C(=O)c1ncn2c1c(=O)[nH]c1ccccc12
    -3.9%	5.1%
Cc1cccc(C)c1NC(=O)CSc1nnc(C)n1-c1ccccc1
    i	-6.5%
CC1C(=O)Nc2ccccc2N1C(=O)c1ccccc1 (configuration not stated)
    i	-16.0%
